# Screens: PubChem BioAssay, several laboratories
# Autofluor counter = flagged as autofluorescent in microsphere protease counterscreen | fluorescence intensity (test concentration not listed) | compound autofluorescence counterscreen, microsphere flow cytometry; active compounds read high | 3.1% of 360,000 active;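 active = at least 3 SD above the mean of all compounds, about 16000 in these data; inconclusive = too few beads counted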;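 note: 100 nL of 1 mM stock went into each well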
# ugtP null kill = kills S. aureus RN4220 lacking UgtP; S. aureus RN4220 ugtP deletion, OD600 growth, 16 h; some inactives read as strong as hits; growth inhibition, % (no concentration beside the values); 0.54% of 330,000 active; AID 1259309;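 active = z-score under -3 and OD600 up to 0.15 on both plates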;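 note: plate controls were untreated wells for no effect and antibiotic for full effect; wells of about 80 µL received 100 nL stock; the first replicate is given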
# Sa RN4220 lethal = kills Staphylococcus aureus RN4220; S. aureus RN4220 growth, OD600, 16 h; inhibition, % (test concentration not listed); 0.33% of 330,000 active;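 active = z-score of -3 or lower and OD600 up to 0.18 on both plates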;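 note: plate controls were untreated cells for no effect and reference antibiotic for full effect; stock transfer was 100 nL into about 80 µL; one replicate is shown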
# BJeLR viability = kills HRASV12-expressing BJeLR cells | inhibition, % (test concentration not listed) | BJeLR (HRASV12) viability, CellTiter-Glo ATP luminescence, 48 h; reference of the scale not given here | AID 1554 | 0.17% of 300,000 active;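 active = replicate mean above 50%; inconclusive = above 50% but judged a plate artefact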;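 note: 50 nL library stock added to about 25 µL; numbers are from one replicate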
# Mtb hypoxia inh = Mtb hypoxia fluorescent reporter inhibition; AID 1159583; 0.1% of 300,000 active; M. tuberculosis hypoxia-regulated fluorescent reporter, fluorescence; fluorescence inhibition, % (no concentration beside the values);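 active = 35 to 45% if threefold the growth effect, above 45% if 1.5-fold the growth effect; inactive = the rest, general growth blockers included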;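 note: wells of about 50 µL received 100 nL stock; 0% = vehicle wells and 100% = reference inhibitor wells; whole bacteria with a GFP reporter of the hypoxia response; strong numbers were not always called active; many hits fall short of the cut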
# PrP UTR inh = inhibition of PrP 5' UTR reporter expression; cell-based PrP 5' UTR mRNA reporter, plate reader; inhibition, % (no concentration beside the values); 0.35% of 340,000 active; AID 488862;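 active = every replicate at 50% or more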;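 note: 0 = median of the neutral control wells; tested in H4 reporter cells; numbers are from one replicate; inactives centre near -14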
# Mtb hypoxia inh growth = second read-out of Mtb hypoxia inh, no call of its own (marks repeat the call); growth inhibition, %; measured here: M. tuberculosis growth (absorbance);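 0% = vehicle and 100% = reference antibiotic; read after six days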
# * hit, by the source's call; ? = inconclusive; nt = no result given.
SMILES,Autofluor counter,ugtP null kill,Sa RN4220 lethal,BJeLR viability,Mtb hypoxia inh,Mtb hypoxia inh growth,PrP UTR inh
CCCCCCOc1ccc(C=c2sc(=C(C#N)C(=O)NCc3ccco3)n(-c3ccccc3)c2=O)cc1,nt,5,3.9,nt,17,6,nt
COc1ccc(-c2cc(C(F)F)n3ncc(C(=O)N4CCN(C)CC4)c3n2)cc1,4257,4,-4.6,0,nt,nt,-18
COc1ccc(NC(=O)CN(C)C(=O)CNC(=O)C2CCCCC2)cc1,4640,15,1.6,-8,8,0,2
CC1(C)C2CC=C(/C=N/NC(=O)c3ccc(O)cc3)C1C2 (centres undefined),2179,nt,nt,6,nt,nt,-28
COc1ccccc1/C=C/C(=O)OCC(=O)N1CCCCC1,3521,1,1.3,nt,10,11,-28
O=C(COC(=O)CC1CC2CCC1C2)NC(=O)NCc1ccco1 (centres undefined),3102,4,3.0,13,nt,nt,-12
O=c1cc(O)c2ccccc2n1Cc1ccccc1F,4129,5,0.5,12,6,0,-13
CCCn1c(-c2ccncc2)n[nH]c1=S,3173,2,1.0,-5,0,1,-32
O=C(O)c1ccccc1C(=O)c1ccc2c(c1)N(Cc1cccc(F)c1)C(=O)CO2,4793,-2,6.8,3,6,4,-3
COc1ccc(Cc2nnc(NC(=O)c3cccc([N+](=O)[O-])c3C)s2)cc1,10093,-4,3.0,0,7,15,-32
CCOc1ccc(NC(=O)C(C)O)c(NS(=O)(=O)c2ccc(CCNC(C)=O)cc2)c1 (centres undefined),10020,5,4.3,8,-5,-10,-16
Brc1ccc([C@H]2CN3CCSC3=N2)cc1,5960,nt,nt,0,nt,nt,-11
O=c1cc(CN2CCN(c3ccccc3)CC2)c2c(ccc3ccccc32)o1,5544,-3,-2.8,nt,nt,nt,-21
Cc1ccc(N2C(=O)C(Cl)=C(Nc3c(C)n(C)n(-c4ccccc4)c3=O)C2=O)cc1,6269,2,2.9,-6,12,8,-16
COc1ccc(NS(=O)(=O)c2cccc(C(=O)NNC(=O)c3cccn3C)c2)cc1,5675,-5,2.7,-5,5,2,3
Cc1ccc(Oc2nnc(-c3cccs3)c3ccccc23)cc1,3950,15,2.6,6,nt,nt,-12
COc1cccc(CN(C)C(=O)c2cccc(NC(=O)CC3SC(N4CCCCC4)=NC3=O)c2)c1OC (centres undefined),5859,-1,1.7,nt,6,0,-22
COc1ccccc1NC(=O)C1=C(C)NC(=O)NC1c1cc(C)cs1 (centres undefined),8812,2,5.4,-6,12,0,-71
O=C(NC1C2CC3CC(C2)CC1C3)C1CC1 (centres undefined),4240,0,5.0,1,21,6,-25
Cc1ccc(Oc2nc3c(c(=O)n(C)c(=O)n3C)n2C)cc1C,5206,8,7.7,0,13,12,5
COc1ccc(CCNC(=O)C(=O)NCC2CCCO2)cc1OC (centres undefined),10631,-4,1.7,0,-7,1,-20
COc1ccc(C=NNc2c(Cl)cc(Cl)cc2Cl)cc1CN1CCOCC1,nt,0,2.1,nt,-4,13,nt
O=C(CCN1CCCCC1=O)NC1CCCN(Cc2ccc(Cl)cc2)C1 (centres undefined),6378,2,4.6,5,5,-8,-7
CCn1c(=O)oc2cc(NC(=O)CCl)ccc21,5183,-10,-0.3,-6,11,19,-12
COCCn1c(Cc2ccccc2)nnc1SCC(=O)NC1CC1,3411,9,1.2,3,1,1,-9
NS(=O)(=O)c1ccc(NC(=O)COc2ccc(Cl)cc2)cc1,4291,4,3.7,1,16,-8,-15
Brc1cc(Br)c2ncnc(N3CCCCC3)c2c1,3185,7,4.6,6,-4,-7,-2
Cc1cc(OCc2nnc(SCC(=O)OC3CCCCC3)o2)ccc1Cl,4265,13,7.8,3,7,4,-40
CCc1nc(CN(C)C(=O)C2CCC(=O)N(Cc3cccc(F)c3)C2)no1 (centres undefined),5296,3,3.6,8,4,1,-21
COC(=O)[C@@]1(Cc2ccccc2)[C@H]2C(=O)N(Cc3ccccc3)C(=O)[C@H]2[C@H]2CN=C(SCC(=O)c3ccccc3)N21,3625,-7,3.9,nt,-8,14,-25
O=C(NC1CCN(C(=S)NCCc2ccccc2)CC1)C1CCCCC1,4400,4,-1.4,4,1,9,-20
COc1cc(/C=C/C(=O)O)ccc1OS(=O)(=O)c1cc(C)ccc1C,3407,10,8.2,-19,2,12,-9
COc1ccc(OCC(=O)Nc2cc(S(=O)(=O)N3CCCCC3)ccc2OC)cc1,4319,1,0.4,7,-6,-3,-23
O=C(CC(c1ccccc1)c1ccccc1)NCCOCc1ccccc1,3981,12,1.0,9,5,9,-5
CCOC(=O)C1CCCN(C(=O)Cc2ccc(C)cc2)C1 (centres undefined),4345,2,-0.4,2,-5,6,-8
CC(C)Cn1c(Cc2ccccc2)n[nH]c1=S,11253,-1,0.7,-6,10,8,nt
COc1ccc(CNC(=O)COc2cc3c(c4oc(=O)cc(C)c24)CCC(C)(C)O3)cc1OC,5255,-6,1.6,6,nt,nt,-25
CC(C)(C)c1ccc(Cn2nc(CC(=O)O)c3ccccc3c2=O)cc1,2056,14,9.4,-8,0,14,-23
CN1CCN(S(=O)(=O)c2cccc(C(=O)Nc3ccc(Br)cc3Br)c2)CC1,6005,3,1.6,-4,7,0,-26
O=C(Cc1ccc(Br)cc1)OCC(=O)N1CCc2ccccc2C1,7027,-9,2.5,-10,-2,2,-24
CC(=O)c1cccc(NC(=O)c2ccc(N(C)S(=O)(=O)c3ccc(C)cc3)cc2)c1,4839,-2,-2.4,4,-4,-1,-4
C/C(CC(=O)Nc1ccc([N+](=O)[O-])cc1)=N/NC(=O)C1C2CCCCC21 (centres undefined),4736,nt,nt,-2,nt,nt,-23
O=C(CC1SC(N2CCOCC2)=NC1=O)Nc1ccc(Cl)c(C(F)(F)F)c1 (centres undefined),3756,-2,4.9,nt,-2,-3,-9
O=c1c2ccccc2nc(-c2ccco2)n1-c1cccnc1,4661,1,4.2,3,nt,nt,3
O=C(Nc1nccs1)c1ccc(NC(=O)c2ccco2)cc1,17273*,-1,1.7,-1,-3,-4,-45
C=CCOc1ccc2c(OC)c3ccoc3nc2c1OC,3978,-1,1.4,1,16,11,-39
COc1ccccc1-c1nc(C(F)(F)F)c(OC)o1,2649,-3,-0.5,8,nt,nt,-10
CC(=O)/C(=N/Nc1ccccc1)N1CCOCC1,22407*,nt,nt,-3,nt,nt,0
Cc1ccc(C(=O)NC2(C(F)(F)F)N=C3SCCN3C2=O)cc1 (centres undefined),4676,8,3.2,-7,nt,nt,-12
CCC1CSC(=Nc2ccc(C)cc2)N1C(=O)CN1C(=O)NC2(CCCC2)C1=O (centres undefined),5681,4,1.7,-10,-11,-7,-21
Cc1cccc(NC(=O)c2ccc(F)c(S(=O)(=O)NCc3ccco3)c2)c1,4247,5,-0.7,4,-5,-6,-4
CC(=O)NC1C(=O)N=C(SCc2ccccc2)NC1=O (centres undefined),9010,-1,1.9,8,4,2,-21
COc1cccc(C(=O)NN=c2sc3ccccc3n2C)c1,nt,-2,2.2,nt,8,-2,nt
COc1cccc(NC(=O)c2sc3ncn(CC(=O)N4CCN(c5ccccn5)CC4)c(=O)c3c2C)c1,4988,1,2.4,4,-4,-5,-3
COc1cc2cc(CN(Cc3cccnc3)C(=O)NCc3ccccc3)c(=O)[nH]c2cc1OC,3508,-4,-12,11,6,11,-9
COc1ccccc1C(=O)Nc1ccc(C2=NNC(=O)CC2C)cc1 (centres undefined),2023,5,0.9,7,8,12,-10
CC1=NN(C(=O)c2ccc(Cn3cc([N+](=O)[O-])cn3)cc2)C(O)(C(F)(F)F)C1 (centres undefined),2521,5,2.7,3,10,5,-6
Oc1[nH]c2ccccc2c1N=Nc1c(F)c(F)c(Cl)c(F)c1F,3437,-13,-5.7,0,15,7,-32
Cn1c(Cl)cnc1C1CC(=O)c2cc(Cl)ccc2O1 (centres undefined),4649,nt,nt,43,nt,nt,-22
COc1ccc(NC(=S)N2CCN(c3ccccc3)CC2)c(OC)c1,4166,-7,-2.9,11,-4,13,-15
# Further records follow:
SMILES,Autofluor counter,ugtP null kill,Sa RN4220 lethal,BJeLR viability,Mtb hypoxia inh,Mtb hypoxia inh growth,PrP UTR inh
O=C1OC(/C=C/c2ccccc2)=NC/1=C/c1ccco1,8189,1,7.3,-8,2,1,-4
COc1ccc(/C=C/C(=O)OCC(=O)NCc2ccco2)cc1OC,7871,5,2.0,7,-2,3,-5
Cc1ccc(N(C(=O)c2csnn2)C(C(=O)NC2CCCCC2)c2ccncc2)c(C)c1 (centres undefined),3547,4,1.6,5,-5,3,2
CC1CCCCC1NC(=O)COC(=O)COc1ccccc1Cl (centres undefined),4499,4,3.5,3,6,4,-11
Cc1nonc1NC(=O)c1ccccc1Br,10141,-1,-1.4,-2,4,7,-26
COc1cccc(CN2CCN(Cc3nc(-c4cccs4)oc3C)CC2CCO)c1 (centres undefined),2184,6,-0.8,7,-12,-13,-20
CC(C)(C)c1ccc(C(=O)NC(=O)COC(=O)c2ccco2)cc1,nt,5,2.7,nt,7,12,-30
Cc1ccc(OCC(=O)Nc2sc3c(c2C#N)CCC3)cc1C,3428,4,-2.4,-6,6,6,-53
C#CCONC(=O)c1cc(OCC(F)(F)F)ccc1OCC(F)(F)F,22449*,-9,4.0,-5,2,10,-12
Cc1nc2ccc(NC(=O)c3ccc4ccccc4n3)cc2s1,3118,4,-6.4,-3,6,-4,-76
COc1cc2c(cc1NC(=O)CSc1nc3ccccc3[nH]1)oc1ccccc12,9578,-6,42,0,17,5,-14
N#CCCn1nnc2ccccc21,?,0,1.4,5,4,4,-7
O=C(N/C(=C/c1cccc(Br)c1)c1nc(=S)[nH][nH]1)c1ccccc1,6581,-5,0.6,4,5,2,-26
CC(C)CC(=O)NC(=S)Nc1cccc(NC(=O)c2ccccc2)c1,2692,43,1.3,3,4,-6,-4
Cc1ccc(OCC(=O)NNC(=O)c2cc(C)[nH]n2)cc1,2028,11,2.9,6,10,7,-7
CC(=O)c1c(C)[nH]c(C(=O)OCc2ccc([N+](=O)[O-])cc2)c1C,3930,8,5.7,6,2,-9,-15
COc1ccc(N2CCN(C(CNC(=O)COc3ccccc3)c3ccco3)CC2)cc1 (centres undefined),5534,9,2.8,5,-2,-2,-38
CCOC(=O)c1[nH]c2ccccc2c1NC(=O)CCN1CC(C)OC(C)C1 (centres undefined),6943,5,4.0,-1,13,10,-17
O=C(c1ccco1)N1CCN(S(=O)(=O)Cc2ccc(Cl)cc2)CC1,10719,4,-1.5,2,2,1,-11
CCC(C)[C@H]1COCCS(=O)(=O)N1Cc1ccc(Cl)cc1Cl (some centres undefined),3034,nt,nt,-6,nt,nt,-6
O=C(CCCn1cncn1)N1CCCC(Nc2ccc(F)cc2)C1 (centres undefined),?,13,1.9,-8,13,0,4
O=C(Oc1ccc(Br)cc1)C1CCN(C2=NS(=O)(=O)c3ccccc32)CC1,?,4,5.2,nt,12,2,-26
O=C(COC(=O)CCC(=O)c1cccs1)Nc1ccccc1C(F)(F)F,4198,1,1.1,nt,11,-1,-16
COc1ccc(CCNC(=O)c2ccc(OCc3c(C)noc3C)c(OC)c2)cc1,4093,5,1.9,nt,5,9,-14

# Rewritten field by field: part of the list above.
Cc1ccc(N2C(=O)C(Cl)=C(Nc3c(C)n(C)n(-c4ccccc4)c3=O)C2=O)cc1
- Autofluor counter = 6269
- ugtP null kill = 2
- Sa RN4220 lethal = 2.9
- BJeLR viability = -6
- Mtb hypoxia inh = 12
- Mtb hypoxia inh growth = 8
- PrP UTR inh = -16
COc1ccc(NS(=O)(=O)c2cccc(C(=O)NNC(=O)c3cccn3C)c2)cc1
- Autofluor counter = 5675
- ugtP null kill = -5
- Sa RN4220 lethal = 2.7
- BJeLR viability = -5
- Mtb hypoxia inh = 5
- Mtb hypoxia inh growth = 2
- PrP UTR inh = 3

# Record cards, as listed above.
# Listed for Cc1ccc(OCC(=O)NNC(=O)c2cc(C)[nH]n2)cc1 = Autofluor counter = 2028; ugtP null kill = 11; Sa RN4220 lethal = 2.9; BJeLR viability = 6; Mtb hypoxia inh = 10; Mtb hypoxia inh growth = 7; PrP UTR inh = -7
# Listed for Cc1nc2ccc(NC(=O)c3ccc4ccccc4n3)cc2s1 = Autofluor counter = 3118; ugtP null kill = 4; Sa RN4220 lethal = -6.4; BJeLR viability = -3; Mtb hypoxia inh = 6; Mtb hypoxia inh growth = -4; PrP UTR inh = -76
